Proteasome disasm – inhibitors of ATP-driven 26S proteasome dissociation, primary screen, biochemical, bead-based flow cytometry, GFP-tagged proteasome. 0.2% of 24,000 active. anti-FLAG beads, GFP-proteasome disassembly. AID 751, 2007. inhibition of disassembly, % (test concentration not listed);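 active = above 40%; inconclusive = likely self-fluorescent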;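 note: plate controls were ATP control with full disassembly for no effect and ATP-gamma-S intact proteasomes for full effect; higher percent means more bead fluorescence retained so stronger block of disassembly; stock transfer was 100 nL into about 10 µL; wells with too few beads may also be inconclusive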
VCAM-1 rise – enhancers of VCAM-1 display on endothelial cells, cell-based, plate reader, pooled HUVEC, TNFa stimulus (AID 455); HUVEC TNFa-induced VCAM-1 immunofluorescence, plate reader; numbers were filed only for top-ranked candidate wells; augmentation, % at 5 µM; 0.2% of 10,000 active;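 active = a compound raising TNF-alpha-driven VCAM-1 surface staining, with its hit status upheld on visual or statistical review; inactive = the rest, including hits rejected on review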;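 note: 0% = TNFa with vehicle and 100% = strongest image-checked hit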
An asterisk follows results filed as active; i = inactive; ? = inconclusive; . = no result given. Some of the compounds tested; rates above refer to the full screens.

Proteasome disasm,VCAM-1 rise,canonical_smiles
-1.3,i,O=C(CSc1nnnn1-c1ccccc1)Nc1nsc(-c2ccc(Cl)cc2)n1
-0.2,.,COc1ccccc1-c1nc(C(N)=O)c2[nH]c(=O)n(-c3cccc(C)c3)c2n1
-0.2,.,COc1cccc(OC)c1OCC(O)CN1CCN(c2ccccc2)CC1 (stereo unspecified)
1.7,i,CCc1c(C)nc(N)n2c(SCC(=O)N3CCCc4ccccc43)nnc12
1.4,.,Cn1c2c(c(=O)n(C)c1=O)C1c3ccccc3OCC1C(C)(C)O2 (stereo unspecified)
-2.5,i,N#CC1=C(N)Oc2cc(O)ccc2C1C1CCCCC1 (stereo unspecified)
-0.4,.,CCN(CC)CCCNC(=O)c1cc2c(=O)n(C)c3ccccc3c2n1C
-1.2,.,CCOC(=O)N1CCN(C(=O)c2oc3ccc(S(=O)(=O)N4CCCCCC4)cc3c2C)CC1
-1.0,i,Cc1nn(-c2nc3ccccc3[nH]2)c(N)c1-c1ccccc1
-0.7,.,O=C(NC(=O)c1ccc(Cl)c(Cl)c1)OC1CCS(=O)(=O)C1 (stereo unspecified)
0.9,i,COc1ccccc1C1CC(c2ccc(C)cc2)Nc2ncnn21 (stereo unspecified)
1.8,.,Cc1ccc(NC(=O)C2CCCN(S(=O)(=O)c3c(C)noc3/C=C/N(C)C)C2)cc1F (stereo unspecified)
0.6,.,CCOC(=O)C1=C(C)N=C2SC(CC)C(=O)N2C1c1cccc(F)c1 (stereo unspecified)
-3.0,.,Cc1noc(C)c1C(=O)Nc1nnc(-c2ccccc2)s1
0.2,i,Cn1c(Cc2csc(N)n2)nnc1SCC(=O)NC1CCCCC1
-0.4,i,O=C(CS(=O)(=O)c1cn(Cc2ccc(F)cc2)c2ccccc12)N1CCCCC1
3.9,.,Cc1noc(C)c1S(=O)(=O)N1CCC(Cc2ccccc2)CC1
-0.8,.,O=C(Nc1ccon1)c1cnc2sccn2c1=O
-0.1,.,COc1ccc(C2C(=O)N(CCc3ccccc3)CC(=O)N2C2CCCC2)cc1 (stereo unspecified)
0.6,i,Cc1cccc(NC(=O)CC(C)(C)C)c1
-0.5,i,CCOC(=O)c1ccc2nc(NC(NC(C)=O)(C(=O)OC)C(F)(F)F)sc2c1 (stereo unspecified)
0.3,.,COC(=O)c1sc2ccccc2c1N
-1.1,.,CCCc1cc(=O)[nH]c(SCC(=O)N2CCN(S(=O)(=O)c3ccc(C)cc3)C2)n1
0.4,.,COC(=O)c1ccc(CSc2ncnc3ccccc23)o1
-1.6,i,Cn1c(=O)[nH]c(=O)c2c1nc(N1CCNCC1)n2Cc1cccc2ccccc12
-0.4,.,CSc1ccc(C2C(C#N)=C(N)N(c3ccccc3)C3=C2C(=O)CCC3)cc1 (stereo unspecified)
1.4,.,COc1ccc(CCNC(=O)C2CCCN(Cc3nc(-c4cccc(Cl)c4)oc3C)C2)cc1OC (stereo unspecified)
0.3,i,CCN(C(=O)c1cc2cc3ccc(C)cc3nc2o1)c1ccc(OC)cc1
0.1,.,Cc1oc(-c2ccc(Cl)cc2)nc1CN1CCCC(C(=O)N2CCc3ccccc32)C1 (stereo unspecified)
0.6,i,Clc1cc2c(c(Cn3cnc4ccccc43)c1)OCOC2
-0.1,i,Clc1ccc(-n2ncc3c(NCCCn4ccnc4)ncnc32)cc1
0.3,.,CCOC(=O)c1[nH]c(C)c(C(=O)NCc2ccc(C)cc2)c1C
0.9,.,COc1ccc(N2C(=O)C3CCCN3C2c2cccc(OC)c2)cc1 (stereo unspecified)
3.3,.,COc1ccc(-n2nnc3c(=O)n(Cc4cccc(C)c4)cnc32)cc1
-1.6,i,CCOC(=O)C1CCN(C(=O)Nc2ccc(Cl)cc2Cl)CC1
4.1,.,O=C(c1ccc(CNc2c(N3CCOCC3)c(=O)c2=O)cc1)N1CC=C(c2ccccc2)CC1
0.5,.,COC(=O)c1ccc(Oc2nc(C)cc(Oc3ccccc3)n2)cc1
4.5,.,CCC(C)N(CCNC(=O)CC1Oc2ccc(C)cc2NC1=O)C1CCCCC1 (stereo unspecified)
0.0,.,Cn1c(C(=O)N2CCCC(C(=O)NCCc3ccccc3)C2)cc2sccc21 (stereo unspecified)
-0.3,.,Cc1ccc(Cn2ccc(NC(=O)c3cc(-c4ccc(F)cc4)on3)n2)cc1
0.4,.,CCNc1nc(Oc2ccc(=O)n(-c3ccccc3)n2)nc(N2CCOCC2)n1
0.5,.,Cc1ccc(C(CC(=O)O)Nc2nc(N3CCCCC3)nc(N3CCCCC3)n2)cc1 (stereo unspecified)
-0.3,.,O=C(c1cc(-c2cccc(O)c2)on1)N1CCOCC1
-2.3,.,COc1ccc(C(=O)N(CN2CCCC2=O)c2nccs2)cc1OC
0.6,i,Cc1noc(C)c1S(=O)(=O)Nc1c(C)n(C)n(-c2ccccc2)c1=O
2.4,.,CCn1c(=O)cc(OCC(=O)Nc2cccnc2)c2ccccc21
-1.0,.,CC(=O)N1c2c(cc(Br)cc2S(=O)(=O)NCc2cccnc2)CC1C (stereo unspecified)
22,.,COc1ccccc1N1CCN(c2nc3ccccc3n3nnnc23)CC1
1.0,.,Cn1c(Cn2c(=O)sc3ccccc32)nnc1SCC(=O)Nc1ccccc1
0.1,.,O=C(NCCC1=CCCCC1)C1CCN(S(=O)(=O)c2cccs2)CC1
-0.1,i,CSc1nnc2c3ccccc3n(CCc3ccccc3)c2n1
-0.6,.,CCN(CCNC(=O)C1CCN(S(=O)(=O)c2cccc3nsnc23)CC1)c1ccccc1
-0.6,i,C[C@H]1C[C@H]2[C@@H]3CCC4=CC(=O)C=C[C@]4(C)[C@@]3(Cl)[C@@H](O)C[C@]2(C)[C@@]1(O)C(=O)CO
1.0,.,Cc1cc(C)cc(NC(=O)CSc2nnc(CNC(=O)c3cccs3)o2)c1
0.9,.,COc1ccc(OC)c(S(=O)(=O)NCc2cn3ccsc3n2)c1
-3.5,.,Cn1c(C(=O)NCc2cccs2)cc2oc3ccccc3c21
1.6,i,Nc1nc(N)c2nc(-c3ccccc3)c(N)nc2n1
2.0,.,COc1ccc(-c2nc(CS(=O)CC(=O)N3CCc4ccccc4C3)c(C)o2)cc1 (stereo unspecified)
-0.2,.,O=C(CCNS(=O)(=O)c1ccc(Br)s1)NC1CCCC1
0.8,i,CC(=O)C1=C(N2CCCCC2)CCC1=O

Further compounds:
Proteasome disasm,VCAM-1 rise,canonical_smiles
3.0,.,COc1cccc(C2C(C#N)=C(N)OC3=C2C(=O)CC(c2ccco2)C3)c1OCc1ccc(F)cc1 (stereo unspecified)
-0.5,.,Cc1ccc(N2CCn3c2nc2c3c(=O)n(CCc3ccccc3)c(=O)n2C)cc1
-1.3,.,CCOc1ccc(-n2cc(C(=O)N3CCCCCC3)c3cc(OC)c(OC)cc3c2=O)cc1
0.0,i,CCOc1cc(N2CCOCC2)c(OCC)cc1NC(=O)COC(=O)CCc1c[nH]c2ccccc12
-1.0,.,Cc1[nH]c(=S)[nH]c(=O)c1CCOc1ccccc1
2.4,.,O=C(Nc1ccc(Br)cc1F)C1CCN(c2nnc(-n3cccc3)s2)CC1
-3.2,i,CCCCNC(=O)OCCNC(=O)NC
0.9,i,CCOc1cc(NC(=O)c2ccco2)c(OCC)cc1NC(=O)Cc1cccc(OC)c1
0.2,.,COc1ccc2c(c1)CCc1c(C(=O)NCCCn3ccnc3)noc1-2
-0.1,i,CCOC(=O)C1CCCN(C(=O)c2ccc(CS(=O)(=O)c3ccc(Br)cc3)o2)C1 (stereo unspecified)
0.0,i,O=C(CSc1nnc(-c2ccccc2)o1)NC1CCCCC1
0.5,.,Cc1ccccc1Cn1c(=O)c2c(nc3n2CCN3Cc2ccco2)n(C)c1=O
1.0,i,CC(C)CCSc1nc2c(c(=O)[nH]c(=O)n2C)n1CCCc1ccccc1
0.4,i,CC(NS(=O)(=O)c1ccccc1)C(c1cccs1)N1CCN(C)CC1 (stereo unspecified)
0.9,.,CCC(C)NC(=O)CSc1nc2ccc(N3CCOCC3)cc2c(=O)n1CCc1ccccc1 (stereo unspecified)
-115,i,N#CC1=C(N)OC2=C(CCC/C2=C/c2ccoc2)C1c1ccoc1 (stereo unspecified)
1.7,.,Cc1cc(C)n2c(Br)c(CSc3nc4ccccc4o3)nc2n1
0.5,.,CCOC(=O)c1nnn(-c2nonc2-c2ccccc2)c1C
-1.0,.,COc1ccc(CC(=O)Nc2c3c(nn2-c2cccc(C)c2C)CS(=O)C3)cc1OC (stereo unspecified)
1.7,.,COc1ccc(-c2nnc3ccc(SCC(=O)NCc4ccco4)nn23)cc1
1.1,.,C/C(=N\S(=O)(=O)c1ccc(C)cc1)N1CCN(S(=O)(=O)c2ccccc2)C1
-0.8,.,CNC(=O)CN1C(=O)CSc2nc(C)cc(C)c21
0.4,i,Cc1cc(=O)n2[nH]c(-c3ccc(Cl)cc3)cc2n1
-1.8,.,CC(NC(=O)c1cccnc1)C(c1cccs1)N1CCOCC1 (stereo unspecified)
0.8,i,Cc1nc2c(o1)CCc1ccccc1C2O (stereo unspecified)
0.8,i,CSc1nc(NC(C)(C)C)nc(Oc2ccc(=O)[nH]n2)n1
-1.3,.,O=C(CCn1c(SCC(=O)NCc2ccco2)nc2ccccc2c1=O)NCCc1ccccc1
2.6,.,Cc1c2cn[nH]c(=O)c2c(C)n1Cc1ccc(F)cc1
2.9,i,COc1ccc(S(=O)(=O)Cc2ccc(C(=O)N3CCN(Cc4ccccc4)CC3)o2)cc1
-2.3,i,O=C(C1=C(O)C(=O)N(c2ncccn2)C1c1cccc(Cl)c1)c1ccco1 (stereo unspecified)
-0.5,.,CC(=O)Nc1c(C(=O)NCc2ccccc2)nnn1Cc1ccccc1
-0.6,i,Cc1c(C(=O)OC2CCC(C)CC2)[nH]c2c1C(=O)CCC2 (stereo unspecified)
0.1,i,CC1(C)OC(=O)C(=CNc2ccccc2F)C(=O)O1
-0.4,.,O=C(Cn1cc2c(n1)CCCC2)NCCCN1CCN(Cc2ccccc2)CC1
1.2,i,O=C(Nc1ccc2c(c1)OCO2)c1cncc(Br)c1
0.8,.,CCCCOc1ccc(C(=O)NCc2ccco2)cc1
-2.8,i,c1ccc(CNc2ccc3c(c2)ncn3C2CCCCC2)nc1
1.2,i,c1ccc(CSc2nnc(-c3cccs3)n2Cc2ccco2)cc1
0.9,.,Cc1ccc(C)c(N2CCN(C(=O)C3CCCN(S(=O)(=O)c4c(C)[nH]c(=O)[nH]c4=O)C3)CC2)c1 (stereo unspecified)
0.7,i,CCN(CC)C(=O)CSc1nc2ccc(NC(=O)CSc3nccn3C)cc2s1
0.0,.,Cc1ccc(N2C(=O)C3C4C=CC(C4)C3C2=O)cc1C (stereo unspecified)
-0.3,.,COc1cc(C(=O)NCc2nnc(SCC(=O)Nc3cc(C)cc(C)c3)o2)cc(OC)c1OC
?,i,COc1ccc2c(C)nc(Nc3nc(C)cc(C)n3)nc2c1
0.4,.,Cn1c(C(=O)O)c(CC(=O)Nc2ccccc2F)c2ccccc21
-1.0,i,CCc1nccn1S(=O)(=O)c1ccc(C)c(C)c1
-0.1,i,COc1ccc(C(=O)Cn2c(N3CCCCC3)nc3c2c(=O)n(C)c(=O)n3C)cc1OC
-3.9,.,COc1ccc(CCNC(=O)C2CCN(S(=O)(=O)c3cnc[nH]3)CC2)cc1OC
-1.5,.,COC(=O)c1ccc(OCC(O)CN2CCC(C)CC2)cc1 (stereo unspecified)
0.9,.,COc1ccc(-n2c3c(cc(C(=O)N4CCC(C)CC4)c2=O)C(=O)CC(C)(C)C3)cc1
-1.2,i,O=C(O)C1C2C=CC(C3CC23)C1C(=O)NCCc1ccccc1 (stereo unspecified)
0.7,i,CCOC(=O)c1c(C(F)(F)C(F)(F)C(F)(F)C(F)(F)F)n[nH]c1C
81*,.,COC(=O)c1ccc2c(c1)N(Cc1nc(-c3cccc(Cl)c3)oc1C)C(=O)C1CCCN21 (stereo unspecified)
0.3,i,COC(=O)C(O)(CC(=O)c1ccc(OC)cc1)C(F)(F)F (stereo unspecified)
-1.3,i,CCn1c(CNc2ccc(C)cc2)nnc1SCC(=O)NCc1ccccc1
1.5,.,CCCCCn1c(SCC#N)nc2cc(C(=O)NC3CCCCC3)ccc2c1=O
1.5,i,CCC(C)(C)n1nnnc1C(c1ccc(OC)c(OC)c1)N1CCN(c2ccc(F)cc2)CC1 (stereo unspecified)
